AF4-AF9 inh: inhibitors of AF4 peptide binding to AF9, primary screen, biochemical, AlphaScreen, biotin-AF4 peptide, FLAG-AF9, single point; Protein AF-9 (Homo sapiens), P42568; inhibition, % at 10 µM; actives 0.47% (n = 350,000); AID 651704, 2012;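 active = every replicate reaching a set inhibition limit, whatever the replicate mean, cut at about 25% in these data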;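 also: 0% = plate neutral control median and 100% = total signal loss; the record names both 10 and 1 µM as test concentration; the first replicate is given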
Target sequence (P42568 whole entry, looked up): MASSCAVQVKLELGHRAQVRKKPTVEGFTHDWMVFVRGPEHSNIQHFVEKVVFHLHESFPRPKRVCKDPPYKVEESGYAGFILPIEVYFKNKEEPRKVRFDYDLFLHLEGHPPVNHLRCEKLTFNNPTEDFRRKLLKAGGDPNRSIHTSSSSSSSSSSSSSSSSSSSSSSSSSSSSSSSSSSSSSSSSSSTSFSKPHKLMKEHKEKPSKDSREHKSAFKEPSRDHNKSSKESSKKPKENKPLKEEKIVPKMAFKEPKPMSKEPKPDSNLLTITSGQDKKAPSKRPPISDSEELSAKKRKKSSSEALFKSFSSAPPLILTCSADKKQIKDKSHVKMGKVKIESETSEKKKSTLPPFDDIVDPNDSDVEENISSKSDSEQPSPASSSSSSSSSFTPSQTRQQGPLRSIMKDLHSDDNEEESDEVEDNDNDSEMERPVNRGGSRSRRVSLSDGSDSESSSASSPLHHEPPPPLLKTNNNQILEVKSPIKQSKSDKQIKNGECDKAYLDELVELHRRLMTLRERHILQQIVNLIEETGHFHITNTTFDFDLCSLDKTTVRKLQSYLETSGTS
* = called active by the depositor. Some of the compounds tested; rates above refer to the full screens.

The opening 11 records (preview)
SMILES	AF4-AF9 inh
COc1ccc([Si](C)(C)[C@@H]2[C@@H](CCO)O[C@]3(C(=O)N(Cc4cccc(N5CCCCC5=O)c4)c4ccccc43)[C@H]2C)cc1	0.8
CO[C@@H](C(=O)N(C)C[C@@H]1OCc2ccccc2-c2ccccc2C(=O)N([C@H](C)CO)C[C@@H]1C)c1ccccc1	-4.5
COCC#Cc1cnc2c(c1)C(=O)N([C@H](C)CO)C[C@H](C)[C@H](CN(C)C(=O)NC1CCCC1)O2	-8.3
CNC(=O)C[C@H]1CC[C@@H]2[C@H](COc3ccc(NC(=O)Nc4cccc(Cl)c4)cc3C(=O)N2C)O1	-0.7
CCNC(=O)C[C@@H]1CC[C@@H]2[C@H](COc3ccc(NC(=O)c4cc(C)on4)cc3C(=O)N2C)O1	-0.3
CC(C)NC(=O)Nc1ccc2c(c1)C(=O)N([C@@H](C)CO)C[C@@H](C)[C@H](CN(C)C(=O)NC(C)C)OCCCC[C@@H](C)O2	-2.1
CC1(C(=O)N2Cc3ccccc3C2)CCN1C(=O)Cc1ccccc1 (stereo not given)	-1.7
COC(=O)c1ccc(CN2CC(=O)N3[C@H](CO)[C@H](c4ccc(Br)cc4)[C@@H]3C2)cc1	3.0
C[C@@H]1CCCCO[C@@H](CN(C)C(=O)Nc2ccc(F)cc2)[C@@H](C)CN([C@H](C)CO)C(=O)c2cc(NC(=O)Nc3ccccc3)ccc2O1	0.7
COCC(=O)N(C)C[C@H]1Oc2cc(C#CC(C)C)ccc2S(=O)(=O)N([C@H](C)CO)C[C@@H]1C	0.1
CNC(=O)C[C@@H]1CC[C@@H]2[C@H](COC[C@H](O)CN2C(=O)Nc2ccc(Cl)c(Cl)c2)O1	-1.1

All compounds of this part, repeating the preview:
SMILES	AF4-AF9 inh
COc1ccc([Si](C)(C)[C@@H]2[C@@H](CCO)O[C@]3(C(=O)N(Cc4cccc(N5CCCCC5=O)c4)c4ccccc43)[C@H]2C)cc1	0.8
CO[C@@H](C(=O)N(C)C[C@@H]1OCc2ccccc2-c2ccccc2C(=O)N([C@H](C)CO)C[C@@H]1C)c1ccccc1	-4.5
COCC#Cc1cnc2c(c1)C(=O)N([C@H](C)CO)C[C@H](C)[C@H](CN(C)C(=O)NC1CCCC1)O2	-8.3
CNC(=O)C[C@H]1CC[C@@H]2[C@H](COc3ccc(NC(=O)Nc4cccc(Cl)c4)cc3C(=O)N2C)O1	-0.7
CCNC(=O)C[C@@H]1CC[C@@H]2[C@H](COc3ccc(NC(=O)c4cc(C)on4)cc3C(=O)N2C)O1	-0.3
CC(C)NC(=O)Nc1ccc2c(c1)C(=O)N([C@@H](C)CO)C[C@@H](C)[C@H](CN(C)C(=O)NC(C)C)OCCCC[C@@H](C)O2	-2.1
CC1(C(=O)N2Cc3ccccc3C2)CCN1C(=O)Cc1ccccc1 (stereo not given)	-1.7
COC(=O)c1ccc(CN2CC(=O)N3[C@H](CO)[C@H](c4ccc(Br)cc4)[C@@H]3C2)cc1	3.0
C[C@@H]1CCCCO[C@@H](CN(C)C(=O)Nc2ccc(F)cc2)[C@@H](C)CN([C@H](C)CO)C(=O)c2cc(NC(=O)Nc3ccccc3)ccc2O1	0.7
COCC(=O)N(C)C[C@H]1Oc2cc(C#CC(C)C)ccc2S(=O)(=O)N([C@H](C)CO)C[C@@H]1C	0.1
CNC(=O)C[C@@H]1CC[C@@H]2[C@H](COC[C@H](O)CN2C(=O)Nc2ccc(Cl)c(Cl)c2)O1	-1.1
CN(c1ccccc1)S(=O)(=O)c1ccc(C(=O)N2CCN(c3ccccc3)CC2)cc1	-5.4
C[C@@H]1CCCCO[C@@H](CN(C)C(=O)Nc2ccccc2)[C@H](C)CN([C@@H](C)CO)C(=O)c2cc(NS(C)(=O)=O)ccc2O1	-0.8
O=C(C1CC(=O)N(c2ccc3c(c2)OCCO3)C1)N1CCN(S(=O)(=O)c2ccc(F)cc2)CC1 (stereo not given)	-1.6
CCCNC(=O)Nc1ccc2c(c1)OC[C@@H](C)N(Cc1cccnc1)C[C@@H](C)[C@H](OC)CN(C)C2=O	0.4
COc1ccccc1CNC(=O)C[C@@H]1CC[C@@H]2[C@H](COC[C@H](O)CN2C(=O)Nc2ccccc2)O1	1.8
C[C@@H]1CN([C@H](C)CO)C(=O)c2cccc(NC(=O)NC3CCCCC3)c2O[C@H]1CN(C)C(=O)Nc1cccc2ccccc12	4.4
C[C@H]1CN([C@@H](C)CO)C(=O)c2cc(-c3ccccc3F)cnc2O[C@@H]1CN(C)C(=O)C1CCC1	-2.9
CO[C@@H]1CN(C)C(=O)c2cc(NC(=O)C3CCCCC3)ccc2OC[C@@H](C)N(C)C[C@H]1C	-2.3
C[C@H]1CN([C@@H](C)CO)C(=O)c2c(c3ccccc3n2C)-c2ccccc2CO[C@H]1CN(C)S(=O)(=O)c1ccc([N+](=O)[O-])cc1	20.4
Cc1ccc2nc(-c3ccc(Cl)cc3)c(Cc3ccsc3)n2c1	1.6
COc1ccc2c3c([nH]c2c1)[C@@H](CO)N(C(=O)NC(C)C)CC31CCN(C(=O)c2ccccn2)CC1	-1.1
Cc1noc(C)c1NC(=O)Nc1ccc2c(c1)C(=O)N([C@@H](C)CO)C[C@@H](C)[C@@H](CN(C)S(=O)(=O)c1ccc(Cl)cc1)OCCCC[C@H](C)O2	-6.8
CO[C@H]1CN(C)C(=O)c2ccc(NC(=O)Nc3ccccc3F)cc2OC[C@H](C)N(Cc2ccccc2C(=O)O)C[C@@H]1C	0.4
Cc1ccccc1-c1nc(NCCN(C)C)nc2ccsc12	2.5
CCCNC(=O)C1(C)CCN1C(=O)C/C=C/c1ccccc1 (stereo not given)	-8.9
COc1ccc(NC(=O)N(C)C[C@H]2OCCCC[C@H](C)Oc3ccc(NS(=O)(=O)c4ccc(C)cc4)cc3C(=O)N([C@@H](C)CO)C[C@H]2C)cc1	-1.0
CCc1c(-c2ccc(Cl)cc2)ncn1CCc1ccccc1OC	3.1
Cc1ccc(-c2cnc3c(c2)C(=O)N([C@@H](C)CO)C[C@@H](C)[C@@H](CN(C)S(C)(=O)=O)O3)cc1	-4.8
C[C@@H]1CN([C@@H](C)CO)C(=O)c2cc(C#CCC3CCCC3)cnc2O[C@@H]1CN(C)Cc1ccccn1	-18.5
CC(C)NC(=O)Nc1ccc2c(c1)C(=O)N([C@H](C)CO)C[C@H](C)[C@@H](CN(C)Cc1ccccc1)OCCCC[C@H](C)O2	-5.3
C[C@@H]1CN([C@H](C)CO)C(=O)Cc2cc(NC(=O)Cn3cnnn3)ccc2O[C@@H]1CN(C)S(=O)(=O)c1ccc(F)cc1	0.9
Cc1nc(S(=O)(=O)N[C@@H]2CCN(Cc3ccc(OCCO)cc3)C2)cn1C	6.2
C[C@@H]1CN([C@H](C)CO)C(=O)c2cccc(NC(=O)Nc3ccc(F)cc3)c2O[C@@H]1CN(C)C(=O)Nc1cccc2ccccc12	3.4
O=C(CN1CCOCC1)N1CC(=O)N2[C@H](C1)[C@@H](c1ccc(-c3cccc(F)c3)cc1)[C@@H]2CO	-1.4
CC(C)NC(=O)C1(C)CCCCCN1C(=O)c1ccc(-c2ccccc2)cc1 (stereo not given)	-3.8
C[C@H](CO)N1C[C@H](C)[C@@H](CN(C)Cc2cccnc2)Oc2ncc(C#Cc3ccccn3)cc2C1=O	-2.5
CNc1nc(NCc2cccc(OC)c2)c2sccc2n1	4.1
Nc1[nH]c(C(=O)c2ccccc2)c(-c2ccc(Br)cc2)c1C(=O)c1ccc(Br)cc1	-0.5
Cc1noc(C)c1S(=O)(=O)N(C)C[C@@H]1OCCCC[C@@H](C)Oc2ccc(N(C)C)cc2C(=O)N([C@H](C)CO)C[C@H]1C	5.3
COCC(=O)N1[C@@H](C#N)[C@@H](c2ccccc2-c2ccccc2)[C@@H]1CO	-3.1
O=C([C@@H]1[C@@H](CO)[C@@H]2Cn3c(ccc(C4=CCCCC4)c3=O)[C@H]1N2Cc1nccs1)N1CCOCC1	-14.3
CCC(=O)N1CCCCN2[C@@H](CO)[C@@H](c3ccc(C#Cc4ccccc4F)cc3)[C@@H]2C1	-5.4
COc1ccc(-c2ccc3c(c2)O[C@H](CN(C)Cc2cccnc2)[C@@H](C)CN([C@H](C)CO)S3(=O)=O)cc1	0.7
COc1ccc2c3c(n(C)c2c1)[C@@H](CO)N(C(=O)c1ccncc1)CC31CN(CC2CC2)C1	5.6
COc1ccc(NC(=O)N(C)C[C@@H]2OCCCC[C@@H](C)Oc3ccc(NC(=O)Nc4ccccc4)cc3C(=O)N([C@@H](C)CO)C[C@H]2C)cc1	-3.0
C[C@H](O)C#Cc1ccc2c(c1)O[C@@H](CN(C)CC1CCOCC1)[C@H](C)CN([C@@H](C)CO)S2(=O)=O	-1.0
CC(=O)Nc1ccc2c(c1)C(=O)N(C)[C@H]1CC[C@@H](CC(=O)Nc3cn(C)nc3C)O[C@H]1CO2	0.4
C[C@H](CO)N1C[C@H](C)[C@@H](CN(C)S(=O)(=O)c2ccc(F)cc2)Oc2cc(C#Cc3ccncc3)ccc2S1(=O)=O	-0.9
CCOC(=O)C1C(C(=O)OC)=C(C(=O)OC)c2ccccc2N1S(=O)(=O)C(F)(F)F (stereo not given)	-5.2
O=C(CC1CC1)N1CC2(C1)[C@@H](c1ccccc1)[C@@H](CO)N2CC1CCOCC1	-3.8
C[C@H](CO)N1C[C@H](C)[C@@H](CN(C)C(=O)c2ccc(F)cc2)Oc2ncc(C#CCN(C)C)cc2C1=O	-1.4
C[C@H]1CCCCO[C@H](CN(C)CC2CC2)[C@@H](C)CN([C@@H](C)CO)C(=O)c2cc(NC(=O)C3CCCCC3)ccc2O1	4.4
C[C@@H](O)C#Cc1ccc2c(c1)O[C@@H](CN(C)Cc1cccnc1)[C@@H](C)CN([C@@H](C)CO)S2(=O)=O	-0.6
CCOC(=O)C1(C)CCCN1C(=O)c1cccc(OC)c1 (stereo not given)	-1.3
C[C@H](CO)N1C[C@H](C)[C@@H](CN(C)Cc2ccncc2)Oc2ccc(NC(=O)CCCN(C)C)cc2CC1=O	-7.0
Cc1ccc(S(=O)(=O)Nc2cccc3c2O[C@H](CN(C)C)[C@@H](C)CN([C@H](C)CO)C3=O)cc1	-3.7
C[C@@H]1CN([C@H](C)CO)C(=O)c2cc(Br)cnc2O[C@@H]1CN(C)C(=O)c1cccnc1	-2.4
CC=Cc1ccc2n(c1=O)C[C@@H]1[C@@H](CO)[C@H](C(=O)OC)N(CCc3ccccc3)[C@H]21 (mixture of isomers)	0.3
COc1ccc2c3c([nH]c2c1)[C@@H](CO)N(C(=O)c1ccc(F)cc1)CC31CN(C(=O)Nc2cccc(F)c2)C1	-1.0

(more compounds)
SMILES	AF4-AF9 inh
O=C(C[C@@H]1C[C@H]2c3cc(NC(=O)NC4CCCC4)ccc3O[C@H]2[C@@H](CO)O1)NCc1ccccn1	-1.9
Cc1noc(C)c1NC(=O)Nc1ccc2c(c1)CC(=O)N([C@H](C)CO)C[C@H](C)[C@@H](CN(C)Cc1ccc(C(F)(F)F)cc1)O2	1.5
CCC(=O)N[C@H]1CC[C@@H](CCNC(=O)Nc2ccc(F)cc2)O[C@@H]1CO	5.9
C[C@@H]1CN([C@@H](C)CO)C(=O)c2cc(NS(=O)(=O)c3ccccc3)ccc2O[C@@H]1CN(C)S(=O)(=O)c1cccs1	2.6
C[C@@H]1CN([C@@H](C)CO)C(=O)c2cc(NS(=O)(=O)c3cn(C)cn3)ccc2O[C@@H](C)CCCCO[C@@H]1CN(C)Cc1ccc(C(F)(F)F)cc1	-1.4
COc1ccc(NC(=O)Nc2ccc3c(c2)C(=O)N([C@@H](C)CO)C[C@@H](C)[C@@H](CN(C)C(=O)NC2CCCCC2)OCCCC[C@H](C)O3)cc1	5.0
CN(Cc1ccco1)C(=O)[C@H](Cc1ccccc1)NC(=O)CC[C@H]1O[C@@H](n2ccc(=O)[nH]c2=O)[C@H](O)[C@@H]1O	-1.4
O=C(NCC(F)(F)F)[C@H]1[C@H](CO)[C@H]2Cn3c(cccc3=O)[C@@H]1N2CCC(F)(F)F	-3.2
CC(=O)Nc1ccc(C(=O)N2CCCC(c3cc(C(=O)NCc4ccc(F)cc4)no3)C2)cc1 (stereo not given)	-3.6
CC(C)NC(=O)Nc1ccc2c(c1)C(=O)N([C@@H](C)CO)C[C@H](C)[C@H](CN(C)C(=O)C1CCCCC1)OCCCC[C@H](C)O2	-5.7
O=C(Nc1cccc(Cl)c1)N[C@H]1CC[C@H](CCNC(=O)C2CCCCC2)O[C@H]1CO	0.0
CCCCc1c(-c2ccccc2OC)ncn1Cc1cccc(-c2ccccc2)c1	3.6
C[C@@H]1CN([C@H](C)CO)C(=O)c2cc(/C=C/c3ccccc3)cnc2O[C@@H]1CN(C)C(=O)c1ccc(F)cc1	5.7
C[C@@H]1CN([C@H](C)CO)C(=O)c2cccc(NC(=O)Nc3ccc4c(c3)OCO4)c2O[C@H]1CN(C)C(=O)Nc1ccc(C(F)(F)F)cc1	8.5
CCCNC(=O)C[C@@H]1CC[C@@H]2[C@H](COc3ccc(NC(=O)c4cccc(C(F)(F)F)c4)cc3C(=O)N2C)O1	0.8
COc1cccc(NC(=O)N(C)C[C@H]2OCc3ccccc3-c3c(n(C)c4ccccc34)C(=O)N([C@@H](C)CO)C[C@@H]2C)c1	4.6
COc1ccccc1C#Cc1ccc([C@@H]2[C@H](C#N)N(C(=O)C3CCCC3)[C@H]2CO)cc1	-3.8
O=C(C(=O)N(C1CCCCC1)C1CCCCC1)c1ccccc1	4.2
C[C@@H]1CN([C@@H](C)CO)C(=O)c2cc(NC(=O)CCCN(C)C)ccc2O[C@@H](C)CCCCO[C@H]1CN(C)C(=O)Cc1ccccc1	-0.1
CS(=O)(=O)N1CCCCN2[C@H](C1)[C@H](c1ccc(Br)cc1)[C@@H]2CO	3.1
CCCNC(=O)N[C@H]1CC[C@@H](CCn2cc(C3CCCCC3)nn2)O[C@H]1CO	-10.0
C[C@@H]1CCCCO[C@H](CN(C)S(=O)(=O)c2ccccc2)[C@@H](C)CN([C@@H](C)CO)C(=O)c2cc(NC(=O)Nc3ccc4c(c3)OCO4)ccc2O1	4.7
O=C(C[C@@H]1CC[C@H]2[C@@H](COC[C@H](O)CN2S(=O)(=O)c2cccc(F)c2)O1)NCCCN1CCOCC1	-0.8
COc1ccc2c3c([nH]c2c1)[C@@H](CO)N(C)CC31CCN(C(=O)NC(C)C)CC1	-0.3

High-throughput results (PubChem BioAssay)
